D2 PAM – positive allosteric modulators of human D2 dopamine receptor; DiscoveRx D2 beta-arrestin cells, luminescence, 90 min; 100% = 57 uM dopamine signal; potentiation, % (concentration not given with the values); hit rate 0.23% among 360,000; AID 624464; active = potentiation of 50% or more; inconclusive = 30% to 50%; inactive = 30% or less;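 also: compound concentration not given in the record; tested on top of an EC20 dose of dopamine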
Target sequence (P14416 whole entry, looked up): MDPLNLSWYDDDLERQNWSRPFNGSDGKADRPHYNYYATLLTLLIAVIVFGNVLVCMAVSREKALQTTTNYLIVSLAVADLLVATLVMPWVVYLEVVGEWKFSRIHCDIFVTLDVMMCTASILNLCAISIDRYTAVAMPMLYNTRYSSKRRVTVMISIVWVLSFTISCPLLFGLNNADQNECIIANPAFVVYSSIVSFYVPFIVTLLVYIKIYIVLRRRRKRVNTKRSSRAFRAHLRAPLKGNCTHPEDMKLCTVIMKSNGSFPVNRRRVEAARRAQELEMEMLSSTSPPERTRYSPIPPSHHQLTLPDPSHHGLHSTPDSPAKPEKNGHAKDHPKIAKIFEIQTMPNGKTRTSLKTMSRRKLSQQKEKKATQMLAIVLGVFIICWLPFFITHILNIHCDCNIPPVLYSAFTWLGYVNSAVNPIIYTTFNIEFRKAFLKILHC
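PathHunter D2 cells, attached overnight at 37 deg C, received compound in DMSO plus dopamine at EC20 (50 nM final) for 90 min at 37 deg C. Beta-arrestin recruitment was read as luminescence after 1 h with detection reagent at ambient temperature.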
CtBP-E1A inh – CtBP/E1A binding inhibition. AlphaScreen GST-E1A/His-CtBP binding, 1536-well; stronger effect = lower value; control for the full effect not named in the record. activity change, % (concentration not given with the values). hit rate 0.49% among 340,000; in the data active means activity change below about -65%; inconclusive means about -30% to -65%; inactive means above about -30%; also: % is scaled to controls: 0 for no effect and ±100 for the full control effect
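AlphaScreen with 125 nM GST-E1A and 125 nM His-CtBP (5X stocks) in Tris pH 8.0, 300 mM NaCl, BSA, Tween 20, TCEP. Compounds preincubated 2 h at 37 deg C, then glutathione donor/nickel acceptor beads added for 1 h at 37 deg C in dark.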
Sfp inh – blocks B. subtilis Sfp PPTase activity; Q9F4F7; Biochemical Sfp PPTase activity, qHTS; Potency, µM, for the others: max response, negative = inhibition, most hits filed as inhibitors; hit rate 3.5% among 310,000; active = well fitted inhibition curve with a large enough effect; inconclusive = small, poorly fitted or top-dose-only effect, or another doubt; inactive = no such curve, though single readings can be large or run the other way;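 also: the enzyme is Sfp with the accession as filed and its product quenches rhodamine fluorescence; potency is read from the fitted curve at half-maximal effect; 0% = enzyme reaction without inhibitor and -100% = no enzyme wells; top concentration of the series not given in the record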
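Step 1, compound plus 15 nM Sfp-PPTase, 15 min, room temperature. Step 2, add rhodamine-CoA (5 uM) and BHQ-2-YbbR (12.5 uM). Step 3, read 525/598 nm fluorescence at 0 and 30 min.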
Six1-Eya2 inh – blocks human Six1 binding to Eya2. Q15475+O00167. AlphaScreen GST-Six1/His-Eya2 binding, biochemical; stronger effect = lower value; control for the full effect not named in the record. activity change, % (test concentration not listed). hit rate 0.56% among 360,000; in the data active = activity change below about -65%; inconclusive = about -30% to -65%; inactive = above about -30%; also: % is scaled to controls: 0 for no effect and ±100 for the full control effect; compound concentration not given in the record
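AlphaScreen with GST-Six1 and His-Eya2 (5X mix: 250 nM and 500 nM), glutathione donor and nickel acceptor beads; buffer 50 mM Tris pH 8.0, 300 mM NaCl, 1 mM TCEP; 1 h at 37 C in the dark.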
PINK1 modulator – modulators of PINK1 expression | hit rate 0.2% among 410,000 | AID 624263 | PINK1 immunofluorescence, high-content cytometry, 24 h | Potency, µM (titrated, usually from 76.6 µM), for inactives: at the highest dose activation (PINK1 increase), usual class: activators; active = well fitted activation curve with a large enough effect; inconclusive = small, poorly fitted or top-dose-only effect; inactive = flat fitted curve, though single readings scatter; cell line not stated here;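 also: potency is read from the fitted curve at half-maximal effect; % of control where 0% means no effect; nearly all actives have a fitted effect of over 65% in size; a mitochondrial uncoupler was the plate control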
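Fluorescence from anti-PINK1 antibody, together with nuclear and cell stains, was scanned on a laser-scanning cytometer. Before staining, stable-line cells were incubated 24 hours with compounds at 5 concentrations; primary antibody 12 h at 10 degrees C.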
TRPV1 potentiator – human TRPV1 potentiation | TRPV1-expressing cells, Fluo-8 calcium influx, capsaicin EC20 potentiation; host cell line not named in the record; control for the full effect not named in the record | hit rate 0.02% among 320,000 | potentiation, % at 8.33 µM | AID 540277; active means potentiation above 80%; inconclusive means 30% to 80%; inactive means below 30%; also: 0% is about no effect
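Cells expressing TRPV1 were dye-loaded with Fluo-8 and read kinetically: 10 s baseline, 3 min after compound (agonist portion), then 2 min after EC20 capsaicin (allosteric enhancer portion). Calcium-bound dye fluorescence at 480/520 nm.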
D2 agonist – activates the human D2 dopamine receptor | P14416 | DiscoveRx PathHunter D2 beta-arrestin, luminescence, 90 min; 100% = 57 uM dopamine signal | activation, % (concentration not given with the values) | hit rate 0.084% among 360,000; in the data active = activation above about 40%; inconclusive = about 15% to 40%; inactive = below about 15%; also: compound concentration not given in the record; the text of the record calls up to 30% inactive
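DiscoveRx PathHunter D2 beta-arrestin cells (2,100/well) attached overnight, then compound-stimulated 90 min at 37 C in HBSS/10 mM HEPES/0.1% Tween-20 buffer; beta-galactosidase complementation read by luminescence after 1 h at ambient temperature. Dopamine 57 uM final (EC100) as control.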
An asterisk follows results filed as active; ? = inconclusive; · = not tested or not shown; & = joins results of further samples; [ ] = dose if it differs, or a comment.

SMILES | D2 PAM | CtBP-E1A inh | Sfp inh | Six1-Eya2 inh | PINK1 modulator | TRPV1 potentiator | D2 agonist
Cc1ccc(S(=O)(=O)NC(=O)COc2ccc(Cl)cc2Cl)cc1 | 0 | -9 | 17% | -1 | -0.4% | 5 | 0.6
O=C1NC(CCc2ccccc2)C(=O)N1CCOc1cccc(Br)c1 (stereo not drawn) | -8 | · | -14% | -4 | -0.8% | -1 | -5.9
O=C(Nc1ccccc1N1CCN(C(=O)c2ccc(Cl)cc2)CC1)c1ccc2c(c1)OCO2 | -17 | -17 | 1% | -7 | · | 6 | -0.3
CCOC(=O)c1c(C)[nH]c(C)c1C(=O)COC(=O)CCc1ccccc1 | -1 | -11 | · | -5 | 2.3% | · | -6.6
O=C1O/C(=C\c2ccccc2)c2ccccc21 | -7 | 29 | 0% | 34 | 3.5% | 0 | -4.6
CCOC(=O)C1=C(C)N=c2sc(=Cc3ccc(OCC(=O)O)cc3)c(=O)n2C1c1ccc(Cl)cc1 (stereo not drawn) | 0 | -5 | · | -29 | 2.5% | · | -2.5
N#CCC(=O)c1ccccc1Oc1ccc(Cl)cc1 | -8 | · | 10% | -4 | 2.3% | 29 | -3.2
S=C(Nc1ccc(Oc2ccccc2)cc1)Nc1cccnc1 | 5 | · | -17% | -1 | 1.3% | -12 | -1.6
CN(Cc1ccc(F)cc1)C(=O)CN1C(=O)c2ccccc2S1(=O)=O | -4 | -5 | · | 0 | 0.7% | · | -1.3
CCc1noc(C)c1C(=O)NCCc1ccccc1 | -6 | 4 | · | 6 | -3.4% | -5 | -0.8
O=C(CCN1N=C(c2ccccc2)CCC1=O)NCCCN1CCOCC1 | 5 | 6 | 8% | 4 | -0.4% | -14 | 3.0
CSCCNCc1cn(-c2ccc(F)cc2F)nc1-c1ccccc1C | -49 | 0 | -4% | -9 | 17% | 0 | -2.5
CC(c1cccnc1)N(CCN(C)C)C(=O)Nc1ccc(Cl)cc1 (stereo not drawn) | -3 | 26 | 4% | 25 | 1.6% | 6 | 1.5
Nc1ncnc(N)c1NC(=O)c1cc(Cl)c(OCc2ccccc2)c(Cl)c1 | -10 | -4 | · | 4 | -0.1% | · | -4.4
Nc1ncc(Br)cc1S(=O)(=O)NCCC(=O)Nc1cccc(Cl)c1 | -10 | 8 | 20% | 2 | · | 3 | 0.7
COc1ccccc1C(=O)NCCN1CCN(c2ccccc2)CC1 | ? | · | -2% | 10 | 0.1% | 8 | ?
COc1ccc(-n2nnnc2SCC(=O)Nc2nc3c(s2)CCCC3)cc1 | -16 | -3 | 0% | -11 | -0.3% | 6 | -0.6
CCC(C)C(NC(=O)c1ccccc1NC(=O)c1ccco1)C(=O)NNC(=O)c1ccc(OC)cc1 (stereo not drawn) | -6 | -19 | -6% | -9 | -1.1% | -18 | -3.3
O=C(Nc1ccccc1)C1=C[C@H](c2csc3ccccc23)C[C@H](OCCCCO)O1 | -10 | 1 | 11% | -5 | 1.0% | 20 | -2.9
O=C(Nc1ccccc1C(=O)O)c1ccc(NC(=O)c2ccc(Br)o2)cc1 | 7 | ? | 8% | ? | -0.2%[38.3 µM] | -6 | 0.0

3 compounds from above, ordered by the number in PINK1 modulator, low to high.
molecule | PINK1 modulator
CCc1noc(C)c1C(=O)NCCc1ccccc1 | -3.4%
O=C1NC(CCc2ccccc2)C(=O)N1CCOc1cccc(Br)c1 (stereo not drawn) | -0.8%
COc1ccccc1C(=O)NCCN1CCN(c2ccccc2)CC1 | 0.1%

Not a retest: two of the compounds above.
SMILES | D2 PAM | CtBP-E1A inh | Sfp inh | Six1-Eya2 inh | PINK1 modulator | TRPV1 potentiator | D2 agonist
Cc1ccc(S(=O)(=O)NC(=O)COc2ccc(Cl)cc2Cl)cc1 | 0 | -9 | 17% | -1 | -0.4% | 5 | 0.6
O=C1NC(CCc2ccccc2)C(=O)N1CCOc1cccc(Br)c1 (stereo not drawn) | -8 | · | -14% | -4 | -0.8% | -1 | -5.9

The results go on.
SMILES | D2 PAM | CtBP-E1A inh | Sfp inh | Six1-Eya2 inh | PINK1 modulator | TRPV1 potentiator | D2 agonist
O=C(NC1CCCCC1)c1cc2nc(-c3ccco3)cc(C(F)(F)F)n2n1 | -8 | -2 | -12% | -7 | 9.1% | 7 | -2.0
NC(=O)c1cccnc1Sc1ccc(Cl)cc1 | -5 | -13 | 16% | -4 | -1.7% | -5 | -0.4
O=C(NCc1ccc(F)cc1)C(c1ccco1)N(C(=O)c1csnn1)C1CC1 (stereo not drawn) | -4 | 8 | 23% | 3 | -0.7% | 19 | 1.8
O=C(Cn1cnc2ccccc21)N/N=C/c1ccccn1 | -14 | -29 | 79µM* | -25 | -0.1% | -4 | -2.7
CC1(C)CC(=O)C(=C2SCCCS2)C(=O)C1 | 3 | 8 | 14% | 5 | 1.6% | 1 | -4.2
COC(=O)C1CC(=O)N(CCc2c[nH]c3ccccc23)C1 (stereo not drawn) | 1 | -2 | 0% | -3 | 0.3% | 0 | -1.5
CS(=O)(=O)c1ccccc1C(=O)NCCC(c1ccccc1)c1ccccc1 | -1 | -23 | 10% | 12 | -1.9% | ? | -2.6
O=S(=O)(Nc1ccc(Cc2ccncc2)cc1)N1CCCC1 | 13 | 9 | 17% | 1 | 0.4%[38.3 µM] | 19 | 3.0
COc1ccc(CCNC(=O)c2c(C)nn(CC(C)C)c2Cl)cc1 | -2 | 3 | -19% | 2 | 6.5% | 10 | -2.1
COc1ccc(CNC(=O)[C@H](C)[C@@H]2C[C@@]2(C)[C@@H](NC(=O)OCc2ccccc2)c2ccccc2)cc1OC | -10 | -3 | 14%&18% | ? | 1.0% | 8 | -0.6
COc1cc(/C=N/NC(=O)c2cccnc2)ccc1OCC(=O)Nc1c(C)cc(C)cc1C | -8 | -11 | 8% | -3 | 0.2% | 21 | -3.0
CCCNC(=O)C(NS(=O)(=O)c1ccc2c(c1)c(=O)n(C)c(=O)n2C)c1ccccc1 (stereo not drawn) | -1 | -2 | 12% | 0 | 4.1% | · | -3.0
CC(C)C(NS(=O)(=O)c1cccs1)C(=O)NCCCN1CCCCCC1 (stereo not drawn) | -10 | · | -6% | 17 | 0.4% | 10 | -10
Cc1ccc(S(=O)(=O)N2CCOCC2)cc1NC(=O)COc1cccc(-n2cnnn2)c1 | -4 | 6 | · | -4 | 0.2% | -2 | -0.4
CCCN1C(=S)c2ccccc2C1c1ccccc1 (stereo not drawn) | -11 | 45 | -16% | 57 | 2.1% | -7 | 5.5
O=C(CCCn1c(SCC(=O)Nc2ccccc2Cl)nc2ccccc2c1=O)NCC1CCCO1 (stereo not drawn) | -4 | -18 | 1% | 5 | 0.0% | -9 | 2.2
COC(=O)C1=C(C)OC(N)=C(C#N)C1c1ccc(OC)c(OC)c1OC (stereo not drawn) | -9 | -12 | 23% | 0 | 0.5% | 3 | -0.8
COc1cc2cc(CN(Cc3cccs3)C(=S)Nc3ccc(C)cc3)c(=O)[nH]c2cc1OC | -21 | -3 | 1% | -7 | 1.2% | -2 | 4.7
S=c1[nH]nc(COc2ccccc2)n1/N=C/C=C/c1ccco1 | -13 | -2 | 56µM* | -13 | 0.9% | 0 | -4.8
COc1ccccc1CCc1nnc(CCC(=O)NCC2CCCO2)o1 (stereo not drawn) | -1 | 5 | 4% | 2 | 0.7% | 1 | 6.5
O=[N+]([O-])c1nccn1CCCCCCCCCCCN1CCOCC1 | -5 | 25 | · | 5 | -0.5% | · | -4.4
Cc1ccnc(NC(=O)C(Cc2ccccc2)NC(=O)c2ccccc2)c1 (stereo not drawn) | -5 | · | · | 3 | 2.2% | -12 | -2.3
CC(C)NC(=O)C1(C)CCCN1C(=O)c1cc(C#N)cs1 (stereo not drawn) | 2 | -1 | · | -1 | 0.1% | · | -2.8
Cn1c(Cn2nnc3ccccc32)nnc1SCC(=O)NCc1ccc2c(c1)OCO2 | 9 | 3 | 22% | 2 | 1.3%[38.3 µM] | ? | -0.4
CC(=O)Nc1nnc(-c2ccccn2)o1 | -5 | -2 | ? | -19 | 1.8% | -7 | -0.6
CCOCCCNC(=O)C1CC(=O)N(C2CCCC2)C1 (stereo not drawn) | -7 | 14 | 11% | 6 | ? | ? | -3.2
CC(C)C[C@@H](COc1ccccc1)N1CCN(CC(C)C)CCC1=O | -93 | -1 | 4% | 3 | 4.6% | -15 | -1.8
CCOC(=O)CSc1nnc2n(Cc3ccccc3)c(=O)c3c4c(sc3n12)CCC4 | 2 | -3 | 1% | 14 | 1.5% | -11 | -1.3
O=[N+]([O-])c1cc(/C=N/O)ccc1Sc1ccccc1 | 1 | -17 | 71µM* | -18 | 1.1% | -16 | -1.7
Cc1cc2oc(=O)cc(C)c2cc1NC(=O)CCl | -4 | 0 | 0% | -6 | -1.3% | 0 | -6.1
CCN(CC)S(=O)(=O)c1ccc(N2CCOCC2)c(NC(=O)c2cc(C)cc(C)c2)c1 | 2 | -19 | -5% | 7 | -1.9% | -2 | -1.5
Cn1cnnc1SCC(=O)N(Cc1ccc2c(c1)OCO2)C1(C(=O)NC2CCCCC2)CCCC1 | -10 | 2 | -6% | -2 | -1.1%[38.3 µM] | 3 | -2.5
c1cncc(-c2noc(-c3ccc4ccccc4c3)n2)c1 | -5 | 15 | 14% | 10 | 0.4% | 0 | 2.8
COc1ccc(OC)c(C2C(C#N)=C(N)N(N(C)C)C3=C2C(=O)CCC3)c1 (stereo not drawn) | -3 | 3 | 12% | 3 | 2.7% | 13 | -1.6
Cc1cc(C)cc(CSCC(=O)NN=C2CCCCCC2)c1 | -9 | -2 | 19% | -1 | -1.3% | -10 | -1.5
COc1ccc(C(=O)O/N=C(\N)Cc2ccc(Cl)c(Cl)c2)cc1OC | 118* | -16 | 11% | -6 | -2.7% | -4 | ?
Cc1ccccc1C(OCC(O)CN1CCCCC1CCO)c1ccccc1 (stereo not drawn) | -30 | -3 | 2% | -7 | -1.0% | 11 | -3.3
CC(=O)Oc1cc2oc(=O)cc(C)c2cc1OC(C)=O | 14 | -2 | 79µM* | -2 | 7.1%[38.3 µM] | -13 | 2.0
Cc1ccc(CN2CCSc3ccc(C(=O)NCc4ccccn4)cc32)cc1 | -1 | -29 | 50µM* | -15 | -0.4% | -2 | -1.5
C[C@]12CCC(=O)C=C1CC[C@@H]1[C@@H]2CC[C@@]2(C)[C@H]1CC[C@@]21CCC(=O)O1 | -15 | · | -1% | 6 | 1.6% | 18 | 4.9
Cc1ccc(C)c(NC(=O)c2cc(-c3cccnc3)nc3ccccc23)c1 | -4 | 9 | 11% | 6 | 15% | 11 | -4.3
